Screening results: PubChem, ICCB-Longwood Screening Facility, Harvard Medical School
PV pol inh – poliovirus RdRp elongation inhibitors, primary screen, biochemical, fluorescence polarization, total intensity | poliovirus polymerase elongation; active compounds read low | % elongation, % (compound at 16.7 µg/mL) | actives 0.66% (n = 150,000); in the data active = % elongation below about 90%; also: some results filed as inactive read as strong as hits
Mtb MenB inh – M. tuberculosis MenB inhibitors, primary screen, biochemical, absorbance; actives 0.43% (n = 100,000); inhibition, %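 (about 12 µg/mL by stock and volumes)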; 1,4-dihydroxy-2-naphthoyl-CoA synthase (Mycobacterium tuberculosis (strain ATCC 25618 / …; AID 540299, 2011; MenB enzyme assay, absorbance read-out; some hits fall short of the stated cut;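 active = mean of two replicates above 30%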;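 also: 0% = no compound and 100% = wells with inactive enzyme; the first replicate is given; strong numbers were not always called active; inactives centre near -10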
Target sequence (P9WNP5 whole entry, looked up): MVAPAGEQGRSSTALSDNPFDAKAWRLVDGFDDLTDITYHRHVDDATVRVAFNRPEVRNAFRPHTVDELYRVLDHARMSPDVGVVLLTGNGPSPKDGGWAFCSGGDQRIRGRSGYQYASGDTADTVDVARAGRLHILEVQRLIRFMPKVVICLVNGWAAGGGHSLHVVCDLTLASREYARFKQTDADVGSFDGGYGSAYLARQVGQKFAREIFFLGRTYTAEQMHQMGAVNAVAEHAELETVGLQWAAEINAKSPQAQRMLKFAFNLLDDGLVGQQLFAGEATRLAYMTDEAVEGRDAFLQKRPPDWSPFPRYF
Mtb MbtI inh – MbtI salicylate synthase inhibitors, primary screen, biochemical, fluorescence intensity; P9WFX0; purified MbtI enzyme, fluorescence intensity read-out; inhibition, %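 (about 17 µg/mL by stock and volumes)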; actives 0.89% (n = 100,000); AID 493033, 2011;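 active = above 50% in both replicates, above 80% if mildly self-fluorescent; inactive = the rest, strongly fluorescent compounds included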;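 also: 0% = mean of negative and 100% = mean of positive controls; one replicate is shown; some compounds called inactive have numbers as strong as hits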
Target sequence (P9WFX0 whole entry, looked up): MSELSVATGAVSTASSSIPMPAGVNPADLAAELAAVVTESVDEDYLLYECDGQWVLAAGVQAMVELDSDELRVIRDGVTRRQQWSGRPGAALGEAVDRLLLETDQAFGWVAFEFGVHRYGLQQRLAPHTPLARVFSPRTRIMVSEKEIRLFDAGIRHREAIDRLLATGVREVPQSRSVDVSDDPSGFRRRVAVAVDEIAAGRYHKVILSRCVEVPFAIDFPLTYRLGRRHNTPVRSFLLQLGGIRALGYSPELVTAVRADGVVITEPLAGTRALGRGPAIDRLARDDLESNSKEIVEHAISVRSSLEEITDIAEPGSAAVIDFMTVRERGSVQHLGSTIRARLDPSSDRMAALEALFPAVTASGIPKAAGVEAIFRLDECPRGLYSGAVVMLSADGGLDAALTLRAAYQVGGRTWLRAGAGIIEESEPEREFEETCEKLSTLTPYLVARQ
PV pol inh intensity – further read-out of PV pol inh, marked with its call; % elongation; measured here: total intensity read-out; formula for this scale not given here;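 total fluorescence in place of polarization; lower means less elongation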
* hit, by the source's call; i = inactive; . = no result given; & = joins results of further samples. No enrichment for hits, and some 1.9% of all compounds hit somewhere here.

SMILES	PV pol inh	PV pol inh intensity	Mtb MenB inh	Mtb MbtI inh
COc1ccc(CC(=O)O/N=C(\N)c2ccccc2)cc1	103	101	-47	-12
COc1ccc(/C=C/C2=CCN(Cc3ccccc3)CC2)cc1	105	116	-20	.
Cc1csc(Nc2nc(N)c(C(=O)Nc3ccccc3)o2)n1	99	102	-6	-2
CCOC(=O)NNc1nc2ccccc2n1Cc1ccccc1	99	100	13	0
C=CCn1cnc2c(c1=O)c1nc3ccccc3nc1n2-c1cccc(C)c1	103	104	-11	-1
N#C/C(=C/c1ccc(-c2cccc(C(F)(F)F)c2)o1)C(=O)N1CCOCC1	100	104	-3	5
CCN(CC)S(=O)(=O)c1ccc(/C=C/C(=O)N(c2ccccn2)C2CCCCC2)cc1	100	91	-36	-9
CCN(C(=O)c1cc2c(=O)n3cccc(C)c3nc2s1)c1ccc(OC)cc1	102	104	-14	1
CCC(O)c1nc2ccccc2n1CC (stereo not given)	102	97	-20	2
COc1ccc(CNC(=O)c2cccs2)cc1	100	102	-28	-8
Cc1nc2cc(-c3ccc(Br)cc3)[nH]n2c(=O)c1Cl	99	99	-3	-17
CN(C)S(=O)(=O)c1cccc(C(=O)Nc2ccccc2)c1	105	102	-16	-9
O=C(C1CCCN(Cc2cccc(Cl)c2)C1)N1CCCCCC1 (stereo not given)	103	104	3	-1
Cc1[nH]c(=S)n(CC(C)C)c1C	113	105	-27	15
O=C(Nc1ccc2c(c1)Cc1ccccc1-2)c1ccc(Br)o1	102	102	-29	-19
CCOc1ccccc1NC(=O)COC(=O)Cc1c(Cl)cccc1Cl	103	105	.	-10
CC(C)c1ccc(Cn2cnc3ccccc32)cc1	100	101	-36	-10
O=C(c1ccco1)N1CCN(C(=O)c2cccc3c2C(=O)N(Cc2cccnc2)C3)CC1	98	104	7	-5
CC(C)(C)C(=O)CSc1nnc2sc3ccccc3n12	101	107	-28	4
Cc1nc(N=C(N)N)nc2ccccc12	91	94	-13	.
COC(=O)c1ccc(-c2ccco2)n1CC(=O)N1CCc2ccccc2C1	101	100	5	-141
CC1=CC(=O)OC(c2ccccc2)C1 (stereo not given)	102	106	9	-9
CCC1C(C#N)=C(SC)NC2=C1C(=O)CC(C)(C)C2 (stereo not given)	104	109	-47	.
CN1CC(C#N)=C(NC2CCCCC2)C1=O	108	111	-19	.
C=CCN=c1scc(-c2ccco2)n1/N=C/C1=CCC2CC1C2(C)C (stereo not given)	108	108	-37	8
Cc1nnc(SCc2ccccc2)[nH]c1=O	97	100	3	26&63
COC(CNC(=O)c1ccc(/C=C2\Oc3ccccc3NC2=O)cc1)OC	101	101	-8	-478
CN(Cc1ccccc1)c1nnc(NC(=O)NC2CCCC2)s1	102	102	-3	-6
COc1ccc(N2C3=[N+](CCCC3)CC2(C)O)cc1 (stereo not given)	102	101	.	-7
CCOc1ccc(OCc2ccc(C(=O)NN)o2)cc1	103	103	3	-8

An excerpt from above in order of formula weight, lowest first.
SMILES	PV pol inh	PV pol inh intensity	Mtb MenB inh	Mtb MbtI inh
CC1=CC(=O)OC(c2ccccc2)C1 (stereo not given)	102	106	9	-9
CCOc1ccc(OCc2ccc(C(=O)NN)o2)cc1	103	103	3	-8
CN(Cc1ccccc1)c1nnc(NC(=O)NC2CCCC2)s1	102	102	-3	-6
COC(=O)c1ccc(-c2ccco2)n1CC(=O)N1CCc2ccccc2C1	101	100	5	-141
COC(CNC(=O)c1ccc(/C=C2\Oc3ccccc3NC2=O)cc1)OC	101	101	-8	-478

More entries.
SMILES	PV pol inh	PV pol inh intensity	Mtb MenB inh	Mtb MbtI inh
O=C(CN1CCN(S(=O)(=O)Cc2ccccc2)CC1)Nc1ccc2[nH]c(=O)[nH]c2c1	102	94	-41	-3
CCCn1c(=O)n(C)c(=O)c2c(SCc3cccc(S(=O)(=O)N(C)C)c3)nc(C(C)C)nc21	104	97	-34	-5
COC(C(=O)NCc1ccc2c(c1)OCO2)c1ccccc1 (stereo not given)	100	98	-23	-15
COc1cc2c3c(c1OC)C1(C=CC(=O)C=C1)CC3[N+](C)(C)CC2 (stereo not given)	104	101	12	4
CC(=O)N1CCN(CC(=O)Nc2ccc(S(=O)(=O)N(C)C)cc2)CC1	108	104	-17	-10
CC(C)(C)OC(=O)N1CC(O)CC1C(=O)N1CCOCC1 (stereo not given)	102	106	-4	.
NC(C(=O)O)C(C(F)(F)F)C(F)(F)F (stereo not given)	96	104	14	6
Cc1ccc(C)c(N2CCN(C(=O)CN(C)S(=O)(=O)c3ccc4[nH]c(=O)oc4c3)CC2)c1	99	101	-2	1
Cc1ccc(C2=N/C(=C\N3CCCCC3)C(=O)O2)cc1	101	101	-9	-27
CS(=O)(=O)Nc1ccc(C(=O)NCc2ccccc2)cc1	104	103	-1	-17
CC(C)CCNC(=O)c1cc(-c2ccco2)nc2ccccc12	102	98	.	-198
COc1ccc2c(c1)CCC/C2=N/NC(=O)c1ccoc1C	103	104	-4	-1
O=C(O)c1nc(Cl)c(Cl)c(Cl)c1Cl	100	104	1	4
Cc1c(C(=O)Nc2ccccn2)oc2ccccc12	101	105	-9	-1
CC1(C)C(C(=O)N2CCN(c3ccc(Cl)cc3)CC2)C1(C)C	103	105	-7	-8
N#Cc1nc(-c2ccccc2)oc1N1CCCCC1	102	113	2	.
C/C(=C\C(=Nc1ccc2c(c1)OCO2)c1ccccn1)c1ccccn1	94	110	2	-4
COc1cccc(OCCNC(=O)c2cccc3ccccc23)c1	110	112	-1	.
COC(=O)[C@@H](NC(=O)c1ccc(Cl)cc1Cl)C(C)C	108	107	-9	-15
CC(C(=O)NC1=NCCS1)(C(F)(F)F)C(F)(F)F	100	104	-1	-9
CC1=C(C(N)=O)C(c2ccccc2)NC(=S)N1 (stereo not given)	100	103	-2	8
COC(=O)C1=C(CN2CCCCC2)NC(=O)NC1c1ccccc1C (stereo not given)	105	101	-44	3
CCOc1cc(/C=N\NC(=O)OC)ccc1OC(=O)c1ccco1	104	101	-16	7
Cc1ccccc1Nc1nn2c(=O)c3ccc(C(=O)NCc4ccccc4Cl)cc3nc2s1	104	107	-13	48
COC(=O)c1c(NC(C)=O)c2c(C)c(C)sc2n1Cc1cccc(C)c1	99	101	3	14
Cc1cc(=O)oc2cc(OCC(O)CNC3CC3)ccc12 (stereo not given)	97	104	9	105
Cc1cc(C)cc(OCCSc2nc3ccccc3n2CCC#N)c1	104	105	-22	13
O=C(CN1C(=O)C2C3C=CC(C3)C2C1=O)Nc1ccc2ncccc2c1 (stereo not given)	101	104	1	24
Cc1ccc(S(=O)(=O)n2nc(-n3c(C)ccc3C)c3c(F)cccc32)c2ccccc12	105	112	7	-11
CC12C(=O)N(CCC(=O)O)C(=O)C1C1C=CC2C1 (stereo not given)	100	98	7	2
CCn1c(N)c(C(=O)COC(=O)CC2Sc3ccccc3NC2=O)c(=O)[nH]c1=O (stereo not given)	104	107	-34	-8
CCc1ccc(C2C(C#N)=C(N)Oc3cc(N)ccc32)cc1 (stereo not given)	103	103	-6	-3
CN(C)c1n[nH]c(=O)[nH]c1=O	102	106	-1	8
O=C(C(NS(=O)(=O)c1ccccc1)c1ccccc1)N1CCCC1 (stereo not given)	99	100	4	0
Cc1cc(C)cc(C(=O)N2CCCCCC2)c1	99	103	11	-2
CCc1cccc(N2C(=O)C(Cc3ccccc3)N=C2N2CCCCC2)c1 (stereo not given)	101	103	-25	-139
COc1ccc(C(=O)c2oc3ccccc3c2NC(C)=O)cc1	100	99	13	8
Cc1nc(-c2cc(C#N)c(Oc3ccc(C(F)(F)F)cc3)nc2C)cs1	111	111	-17	-2
CCOc1cc(C2N3CCc4ccccc4C3CN2S(=O)(=O)c2ccc(C)cc2)ccc1OC (stereo not given)	98	99	-4	.
CCN(CC)Cc1oc(-c2ccccc2)cc1C(=O)O	100	104	12	13
Cn1c2ccccc2c2nnc(SCC(N)=O)nc21	105	102	-23	-19
CCCCn1c(CSc2ccccn2)cn(-c2nnc(C(C)(C)C)s2)c1=O	107	109	4	-6
Cn1c(C2Sc3ccccc3NC2=O)ccc1C1Sc2ccccc2NC1=O (stereo not given)	101	106	-19	-4
Clc1ccc(CCNc2ncnc3c2nc2n3CCCC2)cc1	103	103	-2	-18
Fc1ccc(-c2ccc(C=Nc3ccc(F)c(F)c3)[nH]2)cc1	102	106	.	3
O=C(CSc1nnc(SCC(=O)NCC2CCCO2)s1)NCC1CCCO1 (stereo not given)	107	111	-14	-18
Cc1cc(N2CC(C)CC(C)C2)nc2cc(Cl)ccc12 (stereo not given)	100	100	-32	32
S=C(NCc1ccco1)NC1CCCc2ccccc21 (stereo not given)	96	95	-9	-27
CCOC(=O)c1nc[nH]c1C	100	94	.	-4
O=C(CSc1nc2ccccc2n1-c1ccccc1)N1CCCC1	101	105	.	6

Compounds from the list above with bromine, in the order listed:
SMILES	PV pol inh	PV pol inh intensity	Mtb MenB inh	Mtb MbtI inh
Cc1nc2cc(-c3ccc(Br)cc3)[nH]n2c(=O)c1Cl	99	99	-3	-17
O=C(Nc1ccc2c(c1)Cc1ccccc1-2)c1ccc(Br)o1	102	102	-29	-19

(next part)
SMILES	PV pol inh	PV pol inh intensity	Mtb MenB inh	Mtb MbtI inh
O=C(O)COc1ccc(/C=C2\SC(=O)N(Cc3ccc(F)cc3)C2=O)cc1	103	103	0	-3
COc1ccc(C(=O)Nc2c(O)c3ccccc3oc2=O)cc1OC	101	100	-9	7
Cc1cccc(-n2ncc(C(=O)N3CCCC3)c2-n2cccc2)c1	103	101	-7	-7
CCN(CC(=O)Nc1ccc2c(c1)OCCO2)C(=O)/C=C/c1ccco1	.	.	-3	20
COc1ccccc1Nc1nc(C2(C)CCC(=O)O2)cs1 (stereo not given)	104	107	-1	-1
CN1C(=O)C(Cc2ccccc2)(Cc2ccccc2)c2ccccc21	101	96	8	-1
Cc1cc(Br)c(S(=O)(=O)C(C)(C)C)c(Br)c1	105	105	4	.
CN1CCN(NC(=O)CCN2C(=O)/C(=C\c3ccco3)SC2=S)CC1	101	101	-121	10
Cc1noc(C)c1C(=O)COC(=O)c1ccc(S(=O)(=O)N2CC(C)OC(C)C2)cc1 (stereo not given)	103	107	11	3
COC(=O)CC(=O)CN1C(=O)c2ccccc2C1=O	100	105	-19	i
CC(C)=CC[C@@H](O)C1=CC(=O)c2c(O)ccc(O)c2C1=O	46*	32*	.	-22
Cc1cccc(N2N=C(C(=O)N3CCc4ccccc4C3)CCC2=O)c1	100	108	-4	0
O=C(CCCn1c(=O)c2cccn2c2ccccc21)NCc1cccnc1	104	108	-14	-2
CN1CCN(Cc2c(O)ccc3c(=O)c(-c4ccc(Cl)cc4Cl)c(C(F)(F)F)oc23)CC1	102	105	14	2
CCOc1nc(Nc2ccc(I)cc2C)nc(NC2CCCCC2)n1	101	101	-7	-13
COc1ccc(CCN(Cc2cc3cc(C)ccc3n3nnnc23)C(=O)N(C)C)cc1OC	100	102	7	-7
CCN1C(=O)C(C(c2ccncc2)c2c(O)n(CC)c(=S)n(CC)c2=O)C(=O)N(CC)C1=S (stereo not given)	101	101	-80	68
S=C(NCc1cccnc1)c1ccccc1	107	112	-5	-5
CCCCc1ccc(Nc2ncnc3c2cnn3-c2ccccc2)cc1	102	104	-74	77
C=CCN1CC(c2nc3ccccc3n2Cc2ccc(F)cc2)CC1=O (stereo not given)	101	104	-9	-10
O=S(=O)(NCc1ccc2c(c1)OCO2)c1ccc(I)cc1	101	103	-2	-11
Cc1cccc(NC(=O)CSc2cn(CCNC(=O)c3ccc(F)cc3)c3ccccc23)c1C	101	98	-31	-5
CNCCc1ccccn1	103	104	-10	-2
COc1ccc(/C(C)=N/N=C(N)N)c(O)c1	93	94	-41	14
NC(=S)N1C(c2ccccc2)CCN1c1ccccc1 (stereo not given)	101	97	5	9
CSC(=S)N(C)/N=C/c1cc(Cl)cc(Cl)c1O	126	143	-12	-7
CCCCN(C(=O)c1sc2nc3n(c(=O)c2c1C)CCCCC3)C1CCN(C(C)=O)CC1	104	101	-4	1
O=C(O)Cn1cccn1	99	102	-18	-2
COc1nccnc1NS(=O)(=O)c1ccc(NCc2cc(Br)ccc2O)cc1	99	99	-2	-1
N#C/C(=C/c1ccc(-c2cccc(C(F)(F)F)c2)o1)c1cccc(F)c1	103	101	-104	-18

Complete entries as entered above.
NC(=S)N1C(c2ccccc2)CCN1c1ccccc1 (stereo not given) reads PV pol inh = 101; PV pol inh intensity = 97; Mtb MenB inh = 5; Mtb MbtI inh = 9
COc1nccnc1NS(=O)(=O)c1ccc(NCc2cc(Br)ccc2O)cc1 reads PV pol inh = 99; PV pol inh intensity = 99; Mtb MenB inh = -2; Mtb MbtI inh = -1

More structures.
SMILES	PV pol inh	PV pol inh intensity	Mtb MenB inh	Mtb MbtI inh
O=C(CSc1nc2c(c(=O)[nH]1)CN(Cc1ccccc1)CC2)Nc1ccccc1	102	103	1	-7
CS/C(=C(\C#N)C(=O)C1CC1)N1CCOCC1	106	108	-14	15
N#CCC(=O)Nc1ccc(Oc2ccccc2)cc1	103	101	.	-13
COc1ccc(NC(=O)CN(C)C(C)C(=O)N2CCCCC2)cc1 (stereo not given)	97	101	-1	-6
O=C1c2ccccc2C(=O)c2c1oc(-c1ccccc1)c2C(=O)c1ccccc1	82	108	-5	54
N#Cc1cn(Cc2ccc(F)cc2)c2ccccc12	100	95	-12	.
Cc1nn2c(CN(C(=O)CN3CCOCC3)c3ccccc3)nnc2c2ccccc12	101	101	-16	-8
